Source: PubChem (Johns Hopkins Ion Channel Center)
KCNQ2 inh: KCNQ2 channel blockers in CHO-K1 cells – cell-based, FluxOR thallium flux, B-score, primary screen (AID 2156); 20 min; active compounds read low; only compounds with negative scores are shown here; some inactives read as strong as hits; O88943; B-score at 10 µM; 310,000 compounds, 1.1% hits;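 active means fluorescence ratio B-score at most minus 3 library SDs, with starting brightness B-score within 2 library SDs, cut at about -5.5 in these data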
Target sequence (O88943 whole entry, looked up): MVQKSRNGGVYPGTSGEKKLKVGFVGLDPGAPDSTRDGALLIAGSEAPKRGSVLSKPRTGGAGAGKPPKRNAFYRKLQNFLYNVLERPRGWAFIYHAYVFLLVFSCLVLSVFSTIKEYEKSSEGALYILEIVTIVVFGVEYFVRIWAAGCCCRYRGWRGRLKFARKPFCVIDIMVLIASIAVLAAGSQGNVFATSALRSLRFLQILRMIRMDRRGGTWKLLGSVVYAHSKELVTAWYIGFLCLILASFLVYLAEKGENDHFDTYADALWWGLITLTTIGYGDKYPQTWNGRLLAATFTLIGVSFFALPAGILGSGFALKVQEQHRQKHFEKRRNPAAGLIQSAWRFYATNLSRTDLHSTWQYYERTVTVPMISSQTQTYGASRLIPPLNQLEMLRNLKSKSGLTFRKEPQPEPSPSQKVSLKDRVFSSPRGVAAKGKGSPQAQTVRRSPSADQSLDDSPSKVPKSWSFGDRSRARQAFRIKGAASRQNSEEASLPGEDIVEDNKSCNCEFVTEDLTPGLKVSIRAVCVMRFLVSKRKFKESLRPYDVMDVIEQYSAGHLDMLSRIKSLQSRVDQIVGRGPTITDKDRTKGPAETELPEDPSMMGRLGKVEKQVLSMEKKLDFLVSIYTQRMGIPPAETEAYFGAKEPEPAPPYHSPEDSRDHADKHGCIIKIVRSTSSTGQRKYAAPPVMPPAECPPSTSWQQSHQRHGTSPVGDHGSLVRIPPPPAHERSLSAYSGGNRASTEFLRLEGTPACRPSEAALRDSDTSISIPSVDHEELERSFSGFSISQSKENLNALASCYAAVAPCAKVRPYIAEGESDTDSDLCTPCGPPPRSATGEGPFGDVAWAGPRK
KCNQ2 inh baseline: further read-out of KCNQ2 inh, marked with its call; B-score; measured here: initial fluorescence intensity artifact check;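 brightness before thallium and not channel activity; 0 = typical well and far values either way flag optical interference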
Active calls of the source: *; i = inactive. Only part of the results is shown, so the mix of outcomes need not match the whole.

Value order – KCNQ2 inh, KCNQ2 inh baseline
> CCC(=O)N(C)CCc1cc2c(c(OC)c1/C=N/NC(=O)[C@H]1C[C@@H]1c1ccccc1)OCO2
→ i, 0.02
> O=C(Cn1c(C(F)(F)F)nc2ccccc21)c1ccccc1
→ i, 0.07
> O=C1C2C3C=CC(C3)C2C(=O)N1CNc1ccccc1 (stereo not given)
→ i, 1.4
> CC1CCCCN1C(=O)CSc1nnc(-c2ccccc2O)o1 (stereo not given)
→ i, -0.52
> N/C(=N\OC(=O)CCCOc1ccc(Cl)cc1Cl)c1ccccn1
→ i, -0.3
> COc1cccc(OC)c1C(=O)NC(=S)Nc1ccc2c(c1)Cc1ccccc1-2
→ i, -0.11
> CC(Oc1ccc2c(-c3ccccc3)cc(=O)oc2c1)C(=O)NCCN1CCOCC1 (stereo not given)
→ i, 1
> CCOc1cc(NC(=O)C2CCCO2)c(OCC)cc1NC(C)=O (stereo not given)
→ i, 0.67
> COc1ccc(Cc2nc(-c3ccccc3)no2)cc1
→ i, -1.6
> CCc1ccc(NC(=O)CN(c2ccc(OC)cc2)S(=O)(=O)c2c(C)nn(C)c2C)cc1
→ i, -1.3
> C#CC[N+](C)(C)CCN1C(=O)C2C(c3ccccc3)C=CC(c3ccccc3)C2C1=O (stereo not given)
→ i, 1.3
> CN(c1ccccc1)C(c1ccc(F)cc1)c1nnnn1C1CCCC1 (stereo not given)
→ i, -1.7
> COc1ccc(OCCNC(=S)Nc2cccc3ccccc23)cc1
→ -6.2*, 0.66*
> CCN(CC)c1ccc(NC(=O)c2cc3c(OC)cccc3[nH]2)cc1
→ i, 1.1
> COc1ccc(C(=O)/C=C/Sc2nc3ccccc3o2)cc1
→ i, -1.4
> COc1ccc(-c2oc(/N=C/N3CCOCC3)c(C#N)c2-c2ccc(OC)cc2)cc1
→ i, 0.51
> CNC(=O)NC(=O)C(OC(=O)c1cccc(S(=O)(=O)N2CCCCC2)c1)c1ccccc1 (stereo not given)
→ i, -2.6
> Cc1ccc(C=Nc2ccccc2C#N)s1
→ i, 0.64
> Cc1cccc(N(CC(O)CN2CCCC2)S(=O)(=O)c2ccccc2)c1 (stereo not given)
→ i, -0.18
> CS(=O)(=O)N(CC(O)Cn1c2ccccc2c2ccccc21)c1cccc2ccccc12 (stereo not given)
→ i, 0.65
> COc1ccc(C)cc1NC(=O)CSc1nnc(-c2ccc(Br)cc2)o1
→ i, 0.19
> Cc1cccc(OCC(=O)NCc2n[nH]c(=O)c3ccccc23)c1
→ i, 0.37
> CC(C)CC(C(=O)NC1CCCCC1)N(Cc1cccs1)C(=O)c1snc(C(N)=O)c1N (stereo not given)
→ i, -0.49
> CCn1c(CC(=O)Nc2ccc(F)cc2)nnc1SCC(=O)N1CCOCC1
→ i, 0.18
> O=[N+]([O-])c1cc(/C=N/n2c(-c3ccncc3)n[nH]c2=S)ccc1Cl
→ i, 4.1
> COc1cccc(Nc2ncccc2C(=O)Nc2ccccc2)c1
→ i, -0.01
> COc1cc(NC(=O)C23CC4CC(C2)CC(n2cnc([N+](=O)[O-])n2)(C4)C3)cc(OC)c1
→ i, 1.5
> O=C(CCS(=O)(=O)c1ccc(Br)cc1)Nc1ccccc1Cl
→ i, 0.66
> Cc1ccc(S(=O)(=O)N2CCOCC2)cc1NC(=O)CSc1ccccn1
→ i, 0.31
> CCOc1cccc(NC(=O)CSc2nncn2N)c1
→ i, 0.01

Entries of single compounds as entered above.
O=[N+]([O-])c1cc(/C=N/n2c(-c3ccncc3)n[nH]c2=S)ccc1Cl is listed with KCNQ2 inh = i; KCNQ2 inh baseline = 4.1
CC(C)CC(C(=O)NC1CCCCC1)N(Cc1cccs1)C(=O)c1snc(C(N)=O)c1N (stereo not given) is listed with KCNQ2 inh = i; KCNQ2 inh baseline = -0.49

(further entries)
Value order – KCNQ2 inh, KCNQ2 inh baseline
> NCCS
→ i, 1.6
> CC(NC(=O)COc1ccccc1F)C1CC2CCC1C2 (stereo not given)
→ -6*, 0.24*
> N#C/C(=C\c1ccccc1)C(=O)N1CCN(c2ccccc2F)CC1
→ i, 1.2
> c1ccc2c(COn3nnc4ccccc43)cccc2c1
→ i, 0.42
> O=C(NCCCc1ccccn1)C1CCC(=O)N(Cc2cccc(F)c2)C1 (stereo not given)
→ i, -2
> O=S(=O)(NC1c2cccc3cccc(c23)C1N1CCNCC1)c1ccc(Cl)cc1 (stereo not given)
→ i, 1.4
> COCCNC(=O)COC(=O)/C=C/c1c(C)nn(Cc2ccc(Cl)cc2Cl)c1Cl
→ i, -2.3
> CN(C)S(=O)(=O)c1ccc(NC(=O)C2COc3ccccc3O2)cc1 (stereo not given)
→ i, 2
> COc1ccc(CNC(=O)OCc2nccnc2C(=O)Nc2ccc(Br)cn2)cc1
→ i, 0.91
> NC(=S)Nc1ccc(Cl)c(Cl)c1
→ i, -0.92
> Cc1cc(Cn2nc(-c3ccccc3)cc2C(=O)NCc2cccs2)on1
→ i, -0.15
> COc1ccc(S(=O)(=O)Nc2nc3ccccc3s2)cc1OC
→ i, 0.03
> COC(=O)C1=C(NC(=O)COc2ccc3ccccc3c2)CCS1
→ i, 2.1
> COc1cc(/C=C(\C#N)c2nc3ccccc3o2)ccc1O
→ i, 8.7
> COc1cccc(C2/C(=C(\O)c3ccc4c(c3)OCCO4)C(=O)C(=O)N2CC2CCCO2)c1 (stereo not given)
→ i, -0.5
> O=C(Nc1ccccc1N1CCCCC1)C1CCN(S(=O)(=O)c2ccccc2C(F)(F)F)CC1
→ i, 1.6
> COc1ccccc1C(=O)NCCC(=O)N1CCN(c2ccccc2Cl)CC1
→ i, -0.08
> Cc1cccc(N2CCN(S(=O)(=O)c3cc(-c4cc(C)no4)ccc3C)CC2C)c1 (stereo not given)
→ i, -0.04
> CN(C)CCOc1ccc(/C(=C(/CCCl)c2ccccc2)c2ccccc2)cc1
→ i, -0.02
> CC(=O)Nc1ccc(S(=O)(=O)NC2(C(F)(F)F)NC(=O)N(CC(C)C)C2=O)cc1 (stereo not given)
→ i, 0.04
> CSc1ccccc1C(=O)Nc1ccc2c(c1)CCC2
→ i, -0.19
> Cc1ccc(S(=O)(=O)N2CCN(C(=O)CN3CCCCC3)C2)cc1
→ i, 0.36
> Cc1nc2cc(NC(=O)NCCCO)ccc2o1
→ i, 0.78
> COc1ccc(/C=N/NC(=O)C2(O)c3ccccc3-c3ccccc32)cc1
→ i, -0.07
> CCOC(=O)c1ccc(N2C(=O)CC(N3CC(C)OC(C)C3)C2=O)cc1 (stereo not given)
→ i, -2.4
> CC(c1nc2ccccc2c(=O)[nH]1)N(C)CCOc1ccc(Cl)cc1 (stereo not given)
→ i, 0.72
> Cc1noc(C)c1CSc1nnc(-c2ccccc2)n1N
→ i, 0.68
> Cc1cccn2cc(-c3ccc(NC(=O)Cc4ccccc4)cc3)nc12
→ i, -1.4
> O=Cc1cn(-c2ccc(F)cc2)c2ccccc12
→ i, 0.69
> CS(=O)(=O)N(CC(=O)O)c1ccc(C23CC4CC(CC(C4)C2)C3)cc1
→ i, -0.14
> Cc1cccc(C)c1OCC(=O)N1CCc2ccccc2C1
→ i, 0.36
> O=C1C2C3C=CC(C3)C2C(=O)N1CCCO (stereo not given)
→ i, 0.03
> Cc1ccc2nc3sc(C(=O)N4CCCc5ccccc54)c(N)c3cc2c1
→ i, 4.1
> O=C(CCC(=O)Nc1ccccc1Cl)NNC(=S)Nc1ccccc1C(F)(F)F
→ i, 0.71
> N#CCSc1nc2c(c(=O)n1Cc1ccco1)C1(CCCC1)Cc1ccccc1-2
→ i, -2.9
> c1ccc(-c2nc(NCC3CCCO3)c3ccccc3n2)nc1 (stereo not given)
→ i, -1.3
> O=C(NC1CCCCC1)C(c1cccnc1)N(CCc1ccccc1)C(=O)Cc1cccs1 (stereo not given)
→ i, 1.2
> O=C(CSCc1cccc(Cl)c1)N1CCN(Cc2ccc3c(c2)OCO3)CC1
→ i, 0.43
> O=C(CCn1nc(-c2ccccc2)c2ccccc2c1=O)N1CCN(c2ccccc2)CC1
→ i, -1.4
> O=C(NCCc1ccccc1)c1cc(-c2ccccc2)c(N2CCOCC2)s1
→ i, 0.77
> CSc1ccc(/C=C(/NC(=O)c2ccccc2)C(=O)NCCCn2ccnc2)cc1
→ i, 2.8
> COc1ccc(/C=N\NC(=O)c2ccc(F)cc2)cc1COc1cc(F)ccc1[N+](=O)[O-]
→ i, 1.1
> O=C(NCc1cccnc1)C(=O)Nc1ccc([N+](=O)[O-])cc1
→ i, -0.12
> O=S(=O)(c1ccc(Cl)cc1)N1CCC2(CC1)OCCN2S(=O)(=O)c1cccs1
→ i, -2.6
> Cc1cc(C)n2c(C)nnc2c1
→ i, 0.78
> COc1ccc(-n2c(C)cc(/C=C3\SC(=S)N(Cc4ccco4)C3=O)c2C)cc1
→ i, 2.3
> O=C(Nc1ccccc1)N1CCCCC1c1cccnc1 (stereo not given)
→ i, -1.2
> O=C(C1CCN(S(=O)(=O)c2c(Cl)cccc2Cl)CC1)N1CCCCCCC1
→ i, -0.89
> CCn1c(COc2ccc(=O)n(-c3ccccc3)n2)nnc1SCc1ccccc1
→ i, 0.92
> COc1ccc(C(=O)Nc2cc(=O)n(C)c(=O)n2C)cc1
→ i, 0.05

Arranged by molecular weight (smallest number first): some entries from above.
Value order – KCNQ2 inh, KCNQ2 inh baseline
> COc1ccc(C(=O)Nc2cc(=O)n(C)c(=O)n2C)cc1
→ i, 0.05
> CSc1ccc(/C=C(/NC(=O)c2ccccc2)C(=O)NCCCn2ccnc2)cc1
→ i, 2.8
> O=C(C1CCN(S(=O)(=O)c2c(Cl)cccc2Cl)CC1)N1CCCCCCC1
→ i, -0.89
> COc1ccc(/C=N\NC(=O)c2ccc(F)cc2)cc1COc1cc(F)ccc1[N+](=O)[O-]
→ i, 1.1
> O=S(=O)(c1ccc(Cl)cc1)N1CCC2(CC1)OCCN2S(=O)(=O)c1cccs1
→ i, -2.6

Later entries.
Value order – KCNQ2 inh, KCNQ2 inh baseline
> CCCCN(C(=O)Cn1nnc2ccccc21)C(C(=O)NCCOC)c1ccc(OC)cc1 (stereo not given)
→ i, -0.83
> CC(C)(C)c1cc(NC(=O)COC(=O)c2nccnc2N)n(-c2ccccc2)n1
→ i, 0.99
> COc1ccc(/C=C(\C#N)C(=O)OCC(=O)Nc2ccc(C(C)(C)C)cc2)cc1
→ i, 0.28
> CN(C)[C@@H](CO)c1nnc([C@H](CCC(=O)O)NC(=O)C2CCNCC2)o1
→ i, 2.7
> COc1ccc(NC(=O)Nc2ccc(N3CCOCC3)c3nonc23)c(OC)c1
→ i, 0.82
> COc1ccc2nc(SCC(=O)NC3CCCCC3)[nH]c2c1
→ i, -1.4
> CC(C)CCc1noc(CN2CCN(c3ccc(Cl)cn3)CC2)n1
→ i, 2.3
> O=[N+]([O-])c1ccc(OCC(O)CNCCNc2nccc(C(F)(F)F)n2)cc1 (stereo not given)
→ i, 1.2
> Cc1nn2c(N3CCN(c4ccccn4)CC3)cc(C(C)C)nc2c1-c1ccccc1
→ i, -0.32
> C=CCC(CC(O)COCCC)C(=O)NNC(=S)Nc1ccccc1 (stereo not given)
→ i, -1.4
> CC(C)COC(=O)n1c(SCC(=O)N(C)C)nc2ccccc21
→ i, -0.64
> NC(=O)CC[C@@H]1NC(=O)[C@H](CO)NC(=O)c2cc([N+](=O)[O-])cc(I)c2NCC[C@@H](C(N)=O)NC(=O)[C@H](Cc2ccc(O)cc2)NC1=O
→ i, 3.4
> CC(=O)Nc1cc(C(=O)N(C)Cc2ccccc2)ccc1S(=O)(=O)c1ccc(C)cc1
→ i, 1.6
> CC(CNC(=O)C1CCCCC1)NC(=O)C1CCCCC1 (stereo not given)
→ i, 0.91
> CCOC(=O)c1[nH]c2c(c1-c1ccccc1)C(=O)CC(c1ccc(OC)c(OC)c1)C2 (stereo not given)
→ i, 0.11
> O=C(NC1CCCCCC1)C(=S)NCc1ccccc1
→ i, -0.31
> CC1(OCON)CCCc2ccccc21 (stereo not given)
→ i, 1.5
> O=C(CCN1C(=O)C2C3C=CC(C3)C2C1=O)NCCc1ccccc1 (stereo not given)
→ i, 0.43
> C=CCn1c(SCC(=O)O)nnc1-c1ccc(C(C)(C)C)cc1
→ i, 0.83
> CCOC(=O)C1CCN(S(=O)(=O)c2ccc(CN3C(=O)c4cccnc4C3=O)cc2)CC1
→ i, 1.6
> Cc1ccc2[nH]cc(S(=O)(=O)c3ccc(C(C)C)cc3)c(=O)c2c1
→ i, 0.84
> Cc1ccc(S(=O)(=O)Nc2ccccc2C(=O)Nc2sccc2C(=O)NN(C)C)cc1
→ i, -0.67
> COc1ccc(C2=Nn3c(nnc3-c3cccnc3)SC2)cc1
→ i, 0.02
> O=C(NC(=S)Nc1ccccc1N1CCN(C(=O)c2ccccc2)CC1)c1ccccc1F
→ i, -0.29
> O=c1c(Cc2ccccc2)c(O)ccn1Cc1ccc2c(c1)OCO2
→ i, -1
> C=CCOC(=O)C1=C(C)NC(=O)NC1c1ccc(N(C)C)cc1 (stereo not given)
→ i, -0.65
> O=C(CCCCCNc1nc(=S)[nH]c2ccccc12)NCc1ccccc1Cl
→ i, 0.05
> O=[N+]([O-])c1ccc(P(=O)(Cc2ccccc2)c2ccccc2O)cc1 (stereo not given)
→ i, -0.19
> O=C(CN1C(=O)CC(c2ccccc2)=Nc2ccccc21)NC1CCCCC1
→ i, 0.05
> CCOC(=O)Cn1nnc(-c2ccc(OCC(C)C)cc2)n1
→ i, 0.67
> COC(=O)c1c(C(=O)OC)c(-c2ccc(C)cc2)n2c1CCC2
→ i, -0.6
> C=C(C)CNC(=S)NNC(=O)c1cc(C)oc1C
→ i, -0.03
> Cc1ccc(Nc2c(-c3ccccc3O)nc3cnccn23)cc1
→ i, 0.47
> CCCOc1ccc(C(=O)Nc2nc(C)c(Cc3ccc4c(c3)OCO4)s2)cc1
→ i, -0.62
> CC(=O)c1ccc(NC(=O)C2C3CCC(C3)C2C(=O)O)cc1 (stereo not given)
→ i, 0.47
